Compound activity: PubChem, National Center for Advancing Translational Sciences (NCATS)
Sfp inh – blocks B. subtilis Sfp PPTase activity. AID 1490. Q9F4F7. actives 3.5% (n = 310,000). Biochemical Sfp PPTase activity, qHTS. Potency, µM, for the others: max response, negative = inhibition, usual class: inhibitors; active means well fitted inhibition curve with a large enough effect; inconclusive means small, poorly fitted or top-dose-only effect, or another doubt; inactive means no such curve, though single readings can be large or run the other way;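 further: the enzyme is Sfp with the accession as filed and its product quenches rhodamine fluorescence; potency means the concentration at half of the fitted maximal effect; 0% = enzyme reaction without inhibitor and -100% = no enzyme wells; top concentration of the series not given in the record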
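Sfp 15 nM + cpd, 15 min RT; start w/ rhodamine-CoA 5 uM, BHQ-2-YbbR 12.5 uM (final); 50 mM Hepes pH 7.6, 10 mM MgCl2, 0.01% NP-40, 0.01% BSA; read 525/598 nm at 0 and 30 min.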
ClpP mod – qHTS Assay for Activators of ClpP; Potency, µM (highest dose often 57.5 µM), for the others: top-dose activity change, negative = active; purified B. subtilis ClpP, FRET peptide cleavage, 20 min; actives 1.9% (n = 340,000); AID 651965, 2013; active = well fitted falling curve with a large enough effect; inconclusive = small, poorly fitted or top-dose-only effect; inactive = no such curve, though single readings can be large or run the other way; further: potency means the concentration at half of the fitted maximal effect; the source files actives as falling curves though it sought activators and does not explain the sign; nearly all actives have a fitted effect of over 65% in size; many hits overshoot -100%
Target sequence (P80244 whole entry, looked up): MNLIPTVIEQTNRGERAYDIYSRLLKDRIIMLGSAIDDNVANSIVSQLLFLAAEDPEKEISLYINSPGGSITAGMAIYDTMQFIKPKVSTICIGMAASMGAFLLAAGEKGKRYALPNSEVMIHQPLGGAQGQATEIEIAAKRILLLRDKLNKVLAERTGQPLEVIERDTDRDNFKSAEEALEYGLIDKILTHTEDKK
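ClpP 10 microg/mL final, pH 8 Tris/KCl buffer with BSA, glycerol, Tween-20; compound pinned in; FRET-FV substrate; RT 20 min; Ex320/Em430; ΔFRET vs ADEP 5.8 microM, DMSO, no enzyme.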
Menin MLL FP FL – inhibitors of human menin-MLL interaction, wild-type MLL peptide | Fluorescence polarization, fluorescein-MLL peptide displacement from menin | FP activity change, % at 61.4 µM | 290,000 tested, under 10 active | AID 1766; inconclusive = falling polarisation curve, or a change in total fluorescence; inactive = total fluorescence flat and polarisation flat or rising; no compound was filed as active; the % refers to the polarisation; negative = inhibition;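 further: % of control where 0% means no effect; inhibitors lower the polarisation; unlabelled MLL peptide was the positive control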
gsp ag – activates gsp, the McCune-Albright syndrome mutation; gsp mutant cells, cAMP HTRF, 30 min; control for the full effect not named in the record; actives 0.13% (n = 340,000); AID 624287; Potency, µM (titrated, usually from 76.9 µM), without a hit: top-dose activation (cAMP increase), most hits filed as activators; active = well fitted activation curve with a large enough effect; inconclusive = small, poorly fitted or top-dose-only effect, or another doubt; inactive = no such curve, though single readings can be large or run the other way; cell line not stated here;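 further: phosphodiesterase inhibitor Ro 20-1724 added with compounds to block cAMP breakdown; potency means the concentration at half of the fitted maximal effect; nearly all actives have a fitted effect of over 60% in size; about a fifth of the inactives were tested at one dose only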
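Cells stably selected in G418 were plated at 2000/well, grown 16-24 hr, then given compounds in DMSO with the PDE inhibitor […] (300 uM solution added) for 30 min at 37C; cAMP was read by HTRF.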
PINK1 modulator – PINK1 expression modulation; Potency, µM (series often up to 76.6 µM), without a hit: at the highest dose activation (PINK1 increase), most hits filed as activators; AID 624263; actives 0.2% (n = 410,000); PINK1 immunofluorescence, high-content cytometry, 24 h; active = well fitted activation curve with a large enough effect; inconclusive = small, poorly fitted or top-dose-only effect; inactive = flat fitted curve, though single readings scatter; cell line not stated here;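 further: potency means the concentration at half of the fitted maximal effect; % of control where 0% means no effect; nearly all actives have a fitted effect of over 65% in size; a mitochondrial uncoupler was the plate control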
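Readout is PINK1 immunofluorescence, quantified alongside mitochondrial, cell and nuclear markers by laser-scanning microplate cytometry. Cells from a stable line were exposed to compound titrations (5 concentrations) for 24 hours, with CCCP controls.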
gsp antagonist – antagonizes gsp, the McCune-Albright syndrome mutation | gsp-mutant cells, cAMP HTRF, 30 min; control for the full effect not named in the record | actives 0.4% (n = 340,000) | Potency, µM (titrated, usually from 76.9 µM), for inactives: at the highest dose activity change, negative = inhibition, most hits filed as inhibitors; active = falling curve of any shape with a large fitted effect; inconclusive = falling curve, mostly with a smaller effect; inactive = flat or rising curve; cell line not stated here;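 further: intracellular cAMP measured with PDE inhibitor Ro 20-1724 present during compound exposure; potency means the concentration at half of the fitted maximal effect; on the % scale 0 is the no-effect control and ±100 the full control effect; nearly all actives have a fitted effect of over 65% in size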
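Measurement of cellular cAMP by homogeneous time-resolved fluorescence following a 30 min compound exposure at 37C. The PDE inhibitor […] was present throughout; the assay buffer was DPBS with 0.05% BSA and 0.005% Tween 20.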
D2 ag – human D2 receptor agonism in beta-arrestin assay; P14416; DiscoveRx PathHunter D2 beta-arrestin, luminescence, 90 min; 100% = 57 uM dopamine signal; activation, % (no concentration beside the values); actives 0.084% (n = 360,000); AID 624465; in the data active = activation above about 40%; inconclusive = about 15% to 40%; inactive = below about 15%; further: compound concentration not given in the record; the text of the record calls up to 30% inactive
Target sequence (P14416 whole entry, looked up): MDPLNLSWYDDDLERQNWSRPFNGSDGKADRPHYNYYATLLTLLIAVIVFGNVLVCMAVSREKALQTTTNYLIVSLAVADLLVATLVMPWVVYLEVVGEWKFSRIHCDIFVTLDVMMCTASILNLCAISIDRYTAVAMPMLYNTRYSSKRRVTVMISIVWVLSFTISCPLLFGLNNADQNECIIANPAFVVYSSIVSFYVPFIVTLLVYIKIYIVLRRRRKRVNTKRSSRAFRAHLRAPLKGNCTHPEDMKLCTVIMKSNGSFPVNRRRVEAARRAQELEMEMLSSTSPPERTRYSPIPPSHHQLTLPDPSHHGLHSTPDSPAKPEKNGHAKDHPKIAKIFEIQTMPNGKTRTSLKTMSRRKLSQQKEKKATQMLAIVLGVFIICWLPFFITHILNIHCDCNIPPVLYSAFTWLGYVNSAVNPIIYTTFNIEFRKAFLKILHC
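Agonist mode: compounds alone added to overnight-plated D2 PathHunter cells for 90 min at 37 C, with 57 uM final dopamine (EC100) defining full response. Beta-arrestin recruitment detected by chemiluminescent reagent, read after 1 h at ambient temperature.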
* marks the source's active call; other numbers are inactive results; ? = inconclusive; . = not tested or not shown; [ ] = dose if it differs, or a comment. Hits appear at their usual frequency; 5.1% or so of the library scored in one or more.

SMILES	Sfp inh	ClpP mod	Menin MLL FP FL	gsp ag	PINK1 modulator	gsp antagonist	D2 ag
CCC(C)N(C(=O)c1csnn1)C(C(=O)NC(C)(C)C)c1ccccc1 (configuration not stated)	11.8%	0.3%	1.2	-1.0%	-1.4%	9.0%	-4.9
Cc1cc(Cl)ccc1OC(C)C(=O)NC(C)C1CCCO1 (configuration not stated)	8.0%	0.2%	.	-1.4%	2.4%	8.3%	-4.5
CN1C(=O)C(C)(C)c2cc(S(=O)(=O)N3CCCC(C(=O)NCc4ccc(F)cc4)C3)ccc21 (configuration not stated)	-3.2%	-0.2%	-1.0	-3.0%	-0.3%	-13.9%	-3.7
CCS(=O)(=O)N1Cc2ccccc2CC1C(=O)Nc1ccc(OC)c(OC)c1 (configuration not stated)	7.9%	.	2.4	-12.5%[15.4 µM]	-3.3%	-16.6%	-1.8
CCNC(=O)CN(c1ccccc1)S(=O)(=O)c1ccc(Cl)cc1	9.9%	-0.6%	4.1	-69.2%[inhibitor]	-0.8%[38.3 µM]	-0.1%	-1.3
Cc1cccn2c(=O)c3cc(C(=O)NC(C)c4ccccc4)c(=N)n(CCCn4ccnc4)c3nc12 (configuration not stated)	22.2%	.	0.5	-6.4%[15.4 µM]	1.5%	6.3%	-1.5
CCCCN1C(=O)C2ON(c3ccccc3C)C(c3ccco3)C2C1=O (configuration not stated)	10.9%	-1.9%	4.4	4.5%	?	-9.6%	1.9
O/N=C(/CCc1ccccc1)C1(O)CCCCC1	26.1%	0.4%	-1.2	-28.3%	.	-3.2%	3.9
COc1ccc(C2=NOC(C(=O)Nc3ccc4c(c3)OCCO4)C2)cc1OC (configuration not stated)	15.3%	-4.9%	-0.6	9.6%	-0.4%	-3.7%	6.1
O=C(CCN1C(=O)/C(=C\c2ccccc2F)SC1=S)N1CCOCC1	.	-2.7%	.	1.0%	0.7%	.	-0.1
CC(C)Cn1c(=S)[nH]c2cc(Cl)ccc21	-29.7%	-1.7%	5.4	-4.5%[15.4 µM]	2.5%	1.5%	-0.8
COC(=O)c1cc(=O)n(CCc2ccccc2)c(=Nc2ccc(F)cc2)s1	-3.6%	1.0%	4.7	-17.5%	7.4%	-9.0%	-0.9
CCOC(=O)C(C)c1nc2ccccc2[nH]c1=O (configuration not stated)	5.3%	?	6.9	-20.5%	3.1%[38.3 µM]	8.9%	-0.5
COc1ccccc1-c1nnc(NC(=O)c2ccccc2F)o1	7.7%	-1.2%	0.9	?	0.9%	5.5%	-4.2
c1ccn2cc(-c3ccc4c(c3)OCCO4)nc2c1	-18.8%	4.4%	-0.7	-37.7%[inhibitor]	-0.3%	-6.2%	-1.4
COc1cc(NC(=O)C2CC(c3c(F)cccc3Cl)=NO2)c(OC)cc1Cl (configuration not stated)	2.2%	-2.4%	3.9	-13.6%[15.4 µM]	2.2%	-20.1%	-2.2
CC[n+]1oc(-c2ccccc2)cc1C	11.9%	.	-2.0	-0.2%	2.4%	9.1%	-0.1
COc1ccc(C/C(C)=N/NC(=S)Nc2ccccc2)cc1	?	1.8%	5.2	-34.4%[inhibitor]	3.6%	?	-7.3
O=C(C1CCN(S(=O)(=O)N2CCOCC2)CC1)N1CCN(c2ccc(F)cc2)CC1	8.9%	.	0.5	-9.8%	-1.0%	-3.4%	0.5
O=C(C[n+]1ccccc1)Nc1ccc(Cl)c([N+](=O)[O-])c1	7.1%	-1.4%	?	-1.4%	-0.2%	3.2%	4.1
O=C(NCCc1ccccc1)c1cc(-c2ccco2)on1	11.0%	-0.3%	3.7	7.2%	3.1%[38.3 µM]	-13.5%	-3.2
CCOC(=O)C1=C(COC(=O)c2nc(Cl)ccc2Cl)NC(=O)NC1C (configuration not stated)	.	-1.5%	.	-1.9%	1.4%	1.3%	-8.1
CCOC(=O)c1cc2c(=Cc3ccc(N(C)C)cc3)c3ccccc3n2[n+]1C	.	-11.1%	.	?	-5.4%	?	7.9
Cn1ccc(C(=O)OCC(=O)Nc2ccccc2)n1	18.1%	.	0.5	-7.8%	-1.7%	7.4%	0.8
Cn1cccc1-c1nc2ccccc2n1Cc1ccccc1	1.8%	28.2µM*	1.9	-42.4%[inhibitor]	-1.3%	-38.9%	-2.1
The results go on.
SMILES	Sfp inh	ClpP mod	Menin MLL FP FL	gsp ag	PINK1 modulator	gsp antagonist	D2 ag
Cc1ccc(C2(c3ccccc3)NC(=O)N(CC(=O)NCc3ccccc3)C2=O)cc1C (configuration not stated)	.	-0.7%	.	-31.8%[inhibitor]	1.4%	-13.7%	0.7
O=S(=O)(NCC1CCCO1)c1ccc(S(=O)(=O)N(Cc2ccc(F)cc2)Cc2ccccn2)cc1 (configuration not stated)	0.2%	2.7%	1.1	-47.6%[inhibitor]	10.9%	-19.9%	0.6
Cc1ccc(-c2nnc3ccc(SCC(=O)N4CCCc5ccccc54)nn23)cc1	-10.5%	-4.6%	0.5	1.0%	-0.6%	22.7%	-1.2
O=C(CCl)N(Cc1cccc([N+](=O)[O-])c1)c1cccc(Cl)c1	-6.2%	.	-6.6	1.3%[15.4 µM]	6.1%	-3.0%	-1.2
CC(=O)Oc1ccc(N2C(=O)CC(N3CCOCC3)C2=O)cc1 (configuration not stated)	-5.7%	-3.9%	1.5	-13.7%	-2.1%	6.6%	5.1
Cc1ccccc1C(=O)N1CCC(C(=O)N(CC(C)C)c2c(N)n(Cc3ccccc3)c(=O)[nH]c2=O)CC1	.	-2.3%	.	-30.2%[inhibitor]	0.2%	7.2%	-4.0
CCN(CC)S(=O)(=O)c1cccc(C(=O)NC(Cc2c[nH]c3ccccc23)c2nnc3n2CCC3)c1 (configuration not stated)	3.3%	-2.7%	2.9	?	3.1%	-5.0%	-0.8
CC(C)C(=O)NNc1nc2ccccc2s1	19.5%	0.0%	3.0	-6.9%	.	2.5%	0.7
CC(C)/C(C=O)=C(/NC1CCCCC1)c1ccccc1	.	1.6%	.	0.1%[15.4 µM]	9.4%	-10.0%	0.3
Cc1ccc(S(=O)(=O)N2CCC(C(=O)N3CCC[C@H]3C(=O)NCC(C)C)CC2)cc1	10.6%	-1.1%	.	16.1%	-0.9%	5.0%	-6.0
CC1CCN(C(=O)C(C)OC(=O)CSc2ccc([N+](=O)[O-])cc2)CC1 (configuration not stated)	.	-0.9%	.	2.5%	0.1%	6.3%	7.2
COc1ccc2oc(C(=O)OCC(=O)NC3CCCCC3)c(C)c2c1	.	15.8µM*	.	-1.7%	2.2%	3.1%	-6.9
CC(=O)Nc1nc2ccc(Br)cc2s1	14.6%	2.2%	2.9	-1.9%[15.4 µM]	-1.4%	-7.2%	-8.3
CC(Nc1nc(Nc2ccc(F)cc2)nc(SCC(N)=O)n1)c1ccccc1 (configuration not stated)	3.1%	0.3%	0.6	-2.1%[15.4 µM]	-2.4%	?	-3.5
CCn1c(SCC(=O)Nc2ccc3c(c2)OCO3)nnc1C(C)C	17.7%	.	0.6	-10.7%	0.8%	2.4%	2.3
O=C(NCCc1cccc(F)c1)C1CCC(=O)N(CCCc2ccccc2)C1 (configuration not stated)	10.1%	2.2%	-0.1	-59.6%[inhibitor]	2.3%	-0.8%	-5.5
CCc1sc(C(=O)Nc2ccc3nc(C)sc3c2)cc1C	.	2.4%	.	-2.4%[15.4 µM]	0.9%	-16.3%	-7.1
Cc1nnsc1NC(=O)OCC(C)(C)C	5.2%	-6.9%	1.7	?	-1.9%	6.6%	2.2
CSc1nc(C)cc(Oc2ccccc2)n1	0.8%	.	-0.2	-1.5%	4.7%	6.3%	-4.2
CCN(CC)C(=O)CSc1ncnc2sc(C)c(C)c12	7.6%	.	-0.5	17.0%[15.4 µM]	1.0%	.	-4.2
CN(CC(=O)Nc1ccc(F)c(F)c1F)C(=O)c1ccc2c(c1)S(=O)(=O)N=C1CCCCCN12	.	.	.	-31.9%[15.4 µM]	-3.2%	9.9%	5.8
COCCNC(=O)C(C)N(c1ccc(OC)cc1)S(C)(=O)=O (configuration not stated)	4.4%	1.6%	-2.9	-11.4%	3.2%	10.1%	-1.4
CCC(=O)NCCc1nc2cc(NC(=O)c3ccco3)ccc2n1C	8.6%	.	-2.3	6.1%[15.4 µM]	0.7%	5.8%	-2.1
Cn1cnc(S(=O)(=O)Nc2ccc3c(c2)OCCO3)c1	9.8%	.	3.3	5.8%	-0.3%	8.5%	0.4
Cc1ccc(C)c(-c2nc3cc(N)ccc3o2)c1	-1.9%	-5.9%	1.2	?	1.5%	13.1%	-6.0
Later entries
SMILES	Sfp inh	ClpP mod	Menin MLL FP FL	gsp ag	PINK1 modulator	gsp antagonist	D2 ag
COc1ccc(/C=N/NC(=O)COc2ccccc2-c2ccccc2)cc1	?	-5.1%	-0.9	24.9%	-1.3%	5.5%	-2.8
O=C(Cn1nc(C(=O)O)c2ccccc2c1=O)Nc1cc(Cl)ccc1-n1cncn1	.	-0.2%	.	3.6%	1.8%	2.1%	-0.5
O=[N+]([O-])c1ccc(CN2CCSCC2)cc1	-27.0%	.	-0.3	-11.4%[15.4 µM]	-1.4%	-17.4%	-3.4
C=CCC[C@H](Cc1ccc(F)cc1)C(=O)OC[C@@H](NC(=O)[C@H](CC=C)CC(=O)NCCO)C(C)(C)C	.	0.9%	.	-29.4%	-0.3%	0.2%	-3.7
N#Cc1cnn2c1nc(N1CCCCC1)c1ccccc12	-6.8%	0.5%	3.6	24.0%	1.1%	15.2%	0.4
OCC1(Cc2ccccc2)CCN(C2CCN(c3ccccc3F)CC2)CC1	4.0%	.	-0.4	-22.5%[15.4 µM]	0.1%	12.2%	1.2
O=c1[nH]c(C(F)(F)F)nc2c1nnn2Cc1ccccc1F	8.4%	-0.8%	2.5	-58.4%[inhibitor]	0.5%	-3.6%	-0.2
COc1ccc([N+](=O)[O-])cc1Nc1c2ccccc2nc2ccccc12	-13.5%	-4.8%	-3.0	3.1%	2.4%	15.3%	-5.8
CCN1CCN(CC(=O)c2c[nH]c3ccccc23)CC1	9.9%	-1.4%	2.2	0.4%	-0.4%	19.2%	-1.8
COC(=O)c1sc(NC(=O)c2c(C)noc2C)nc1C	0.1%	-5.9%	.	?	1.0%	-4.8%	0.4
CC(=O)Nc1ccc(S(=O)(=O)Nc2cc(C)ccn2)cc1	9.0%	.	-2.4	-30.4%[inhibitor]	1.4%	1.8%	4.9
